Cruzain noTriton – cruzain (T. cruzi) inhibition without detergent; Potency, µM, for the others: max response, negative = inhibition, most hits filed as inhibitors; P25779; purified cruzain, Z-FR-AMC fluorescence, no detergent; 200,000 tested, 2.3% active; AID 1476; active = well fitted curve in the direction sought with a large enough effect; inconclusive = small, poorly fitted or top-dose-only effect, or another doubt; inactive = no such curve, though single readings can be large; an effect the other way counts as inactive or inconclusive;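 note: plate controls were enzyme without inhibitor for no effect and buffer without enzyme for full effect; nearly all actives have a fitted effect of over 40% in size; top concentration of the series not given in the record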
Target sequence (P25779 123-467 limits assumed): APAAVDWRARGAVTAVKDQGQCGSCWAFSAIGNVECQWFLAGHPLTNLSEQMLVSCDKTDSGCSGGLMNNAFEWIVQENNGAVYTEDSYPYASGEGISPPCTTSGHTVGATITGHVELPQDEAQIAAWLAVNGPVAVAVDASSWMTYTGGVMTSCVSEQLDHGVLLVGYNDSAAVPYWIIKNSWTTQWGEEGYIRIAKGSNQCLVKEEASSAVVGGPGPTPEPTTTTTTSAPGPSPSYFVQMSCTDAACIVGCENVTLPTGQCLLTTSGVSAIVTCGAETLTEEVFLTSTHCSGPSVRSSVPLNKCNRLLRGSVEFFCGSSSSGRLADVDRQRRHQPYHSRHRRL
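Detergent-free condition (0.00005% Triton X-100) in acetate buffer pH 5.5 with DTT. 1.5 nM enzyme and compound were pre-mixed 15 min, then 2 uM Z-FR-AMC substrate added; reaction progress from fluorescence change between first and third reads (60 s).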
MARV entry inh – inhibitors of Marburg virus binding or cell entry; Marburg virus pseudotyped entry inhibition, cell reporter; control for the full effect not named in the record; about a third of the inactives were read at about 46 µM; Potency, µM (doses to about 37.8 µM), for the others: at the top dose activity change, negative = inhibition, usual class: inhibitors; 300,000 tested, 1.8% active; AID 540276; active = well fitted inhibition curve with a large enough effect; inconclusive = small, poorly fitted or top-dose-only effect, or effect the other way; inactive = flat fitted curve, though single readings scatter; tested in HEK293 cells; about a fifth of its hits are not listed in these tables; note: % is set by controls: 0 for no effect and ±100 for the full control effect; luciferase read-out
StopGo reporter – FMDV 2A StopGo reporter, luciferase signal. 410,000 tested, 1.2% active. human cells with a luciferase reporter of 2A StopGo recoding; control for the full effect not named in the record. Potency, µM (titrated, usually from 57.9 µM), without a hit: top-dose signal change, negative = less light; active = well fitted falling curve with a large enough effect; inconclusive = small, poorly fitted or top-dose-only effect; inactive = no such curve, though single readings can be large or run the other way; tested in HEK293T cells; note: % is set by controls: 0 for no effect and ±100 for the full control effect; nearly all actives have a fitted effect of over 45% in size; luciferase light after 4 h
SARS PLP yeast – SARS-CoV PLP inhibition in yeast; S. cerevisiae expressing SARS-CoV PLpro, growth rescue; control for the full effect not named in the record; Potency, µM (doses to about 32.9 µM), inactives show top-dose activity, positive = growth rescue; 330,000 tested, 0.19% active; AID 485353; note: 0% is about no effect; nearly all actives have a fitted effect of over 55% in size; growth read by luminescence after 48 h
NS1 function inh – influenza NS1 inhibition; Potency, µM (highest dose often 46.1 µM), without a hit: at the highest dose activity, positive = more growth; 270,000 tested, 0.4% active; S. cerevisiae slowed by influenza A NS1, growth recovery by OD600; note: actives are rising curves; nearly all actives have a fitted effect of over 50% in size
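Recovery from NS1-induced slow growth read by OD600 in budding yeast switched to galactose assay medium (pH 6.0, -URA) at 1:100 dilution. Compound 23 nl per well; the matching strain lacking NS1 serves as control.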
RE007 growth inh – less growth of the S. pombe RE007 Vpr strain | S. pombe RE007 Vpr strain, BacTiter-Glo ATP luminescence, 24 h; control for the full effect not named in the record | Potency, µM (titrated, usually from 92.2 µM), for inactives: at the top dose activity change, negative = less growth | 360,000 tested, 0.21% active; active = well fitted falling curve with a large enough effect; inconclusive = small, poorly fitted or top-dose-only effect; inactive = no such curve, though single readings can be large or run the other way;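 note: % is set by controls: 0 for no effect and ±100 for the full control effect; nearly all actives have a fitted effect of over 50% in size; the assay follows cell death caused by Vpr and the record does not say whether a fall means rescue or toxicity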
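Fission yeast RE007 carrying one integrated HIV-1 vpr copy, seeded at OD 0.01 in PMG+AL medium with 23 nL pinned compound. Grown 24 h at 30 degrees; viability read by BacTiter-Glo luminescence after 5 min.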
Cruzain Triton – cruzain (T. cruzi) inhibition with detergent; P25779; 200,000 tested, 0.43% active; purified cruzain, Z-FR-AMC fluorescence, 0.01% Triton; Potency, µM, for the others: max response, negative = inhibition, usual class: inhibitors; active = well fitted curve in the direction sought with a large enough effect; inconclusive = small, poorly fitted or top-dose-only effect, or another doubt; inactive = no such curve, though single readings can be large; an effect the other way counts as inactive or inconclusive;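 note: plate controls were neutral wells for no effect and buffer without enzyme for full effect; nearly all actives have a fitted effect of over 40% in size; top concentration of the series not given in the record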
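Read-out: AMC fluorescence (360 nm excitation, 450 nm emission), four reads over 2 min, first-to-third difference used. Conditions: cruzain 1.5 nM, Z-FR-AMC 2 uM, pH 5.5 acetate, 5 mM DTT, 0.01% Triton X-100.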
LASV entry inh – inhibitors of Lassa virus binding or cell entry; Lassa virus pseudotype entry inhibition, cell reporter; control for the full effect not named in the record; Potency, µM (top dose mostly 37.9 µM), without a hit: at the top dose activity change, negative = inhibition, usual class: inhibitors; 300,000 tested, 1.2% active; AID 540256; active means well fitted inhibition curve with a large enough effect; inconclusive means small, poorly fitted or top-dose-only effect, or effect the other way; inactive means flat fitted curve, though single readings scatter; tested in HEK293 cells; note: % is set by controls: 0 for no effect and ±100 for the full control effect; nearly all actives have a fitted effect of over 50% in size; luciferase read-out
The depositor's hits bear a star; ? = inconclusive; nt = not tested or not shown; [ ] = remark or other dose. Unless noted, calls come from the whole dose curve; as a rule, active means well fitted rising curve with a large enough effect; inconclusive means small, poorly fitted or top-dose-only effect; inactive means no such curve, though single readings can be large or run the other way. Potency is the fitted concentration of half-maximal effect.

SMILES | Cruzain noTriton | MARV entry inh | StopGo reporter | SARS PLP yeast | NS1 function inh | RE007 growth inh | Cruzain Triton | LASV entry inh
N/N=C1\CCCc2c1[nH]c1ccc([N+](=O)[O-])cc21 | nt | 3%[46.1 µM] | -3% | -1% | 0% | 1% | nt | -8%
O=C(CCNC(=O)c1ccccc1)NNC(=O)c1ccccc1Br | nt | ? | -7% | -10% | nt | -1% | nt | 21%
CCCCN1C(=O)C(=O)NC[C@@H]1C(C)CC (stereo not given in full) | nt | nt | 21% | -2% | 0% | -19% | nt | nt
COC(=O)c1cc(S(=O)(=O)NCc2cccc(OC)c2)cn1C | nt | nt | 30%[activator] | -4% | -13% | -1% | nt | nt
O=c1n(-c2ccccc2)c(=O)n2n1CCCC2 | -2% | -3% | -9% | 4% | -4% | -11% | 4.0% | 14%
COc1cccc(C(c2sc3nc(C)nn3c2O)N2CCc3ccccc3C2)c1 (stereo not given) | ? | nt | 24% | -1% | -99% | 3% | 1.8% | nt
COc1ccc(/C=C/C(=O)NNc2c(F)c(F)cc(F)c2F)cc1OC | 3% | 1% | 8% | -10% | -5% | -4% | -7.5% | 12%
O=C(O)c1ccccc1-c1ccccc1C(=O)NCc1ccccc1F | nt | ? | 9% | 3% | -3% | 3% | nt | -3%
O=C(CN1C(=O)COc2ccc(S(=O)(=O)N3CCCC3)cc21)NCCc1ccc(Cl)cc1 | 12% | nt | 8% | nt | nt | nt | 0.4% | 3%[46.1 µM]
CCCCN(C(=O)c1cc(CC)c(C)s1)c1c(N)n(CC(C)C)c(=O)[nH]c1=O | nt | ? | 4% | 3% | 1% | 7% | nt | -9%[46.1 µM]
Cc1ccc(NC(=O)CSc2ncnc3ccccc23)cc1S(=O)(=O)N1CCCCC1 | ? | ? | 16µM* | -5% | 10% | 3% | -6.8% | ?
CCCc1cc(N2CCCC(C(=O)Nc3c(OC)cccc3OC)C2)n2ncnc2n1 (stereo not given) | 7% | 0% | -4% | -4% | 6% | 20% | 3.2% | -2%
COC/C=C/C1=CC2=CC(=O)C(C)(OC(=O)c3ccco3)C(=O)C2=CO1 (stereo not given) | 0% | nt | nt | -2% | 2% | nt | -2.7% | nt
O=C(NN(CC(O)COc1ccccc1)CC(O)COc1ccccc1)c1ccccc1 (stereo not given) | nt | -21%[46.1 µM] | 22% | -1% | -5% | 19% | nt | ?
COc1ccc(CCN2CC(C(=O)NCc3nc(C)c(C)s3)CCC2=O)cc1 (stereo not given) | nt | 4% | -13% | 2% | 3% | -19% | nt | 1%
N#CCC(=O)N1CCN(C=O)CC1 | nt | ? | 15% | 1% | nt | -13% | nt | 18%[46.1 µM]
COc1ccc(-c2cc(=O)c3ccc(O)cc3o2)cc1 | ? | nt | 40%[activator] | nt | nt | -1% | -1.8% | nt
CCCCC(=O)Nc1cccc(NC(=O)CC)c1 | 11% | -1%[46.1 µM] | 3% | 1% | 2% | 6% | 3.0% | ?
COC(=O)c1c(C)sc(-c2c(-c3ccc4c(c3)OCCO4)[nH]c3[nH]c(=O)[nH]c(=O)c23)c1O | ? | -14%[46.1 µM] | -23% | nt | nt | nt | -8.8% | 20%[46.1 µM]
CS(=O)(=O)CCC(C(=O)N1CCOCC1)N1C(=O)c2cc(Cl)c(Cl)cc2C1=O (stereo not given) | 4% | -20% | -14% | -21% | -5% | -16% | 0.9% | -12%
COc1ccccc1-c1nc2n(n1)C(c1ccc(Cl)cc1)C(C(N)=O)=C(C)N2 (stereo not given) | 1% | ? | -20% | -4% | -10% | 14% | -2.6% | -7%
Cc1ccc(NC(=O)C(=O)NN=C2CCCC2)cc1C | nt | ? | 71%[activator] | 1% | 2% | -3% | nt | -4%
Cc1ccc(CNC(=O)c2cc3c(=O)n4cccc(C)c4nc3n(CC3CCCO3)c2=N)cc1 (stereo not given) | ? | -2% | nt | 9% | 17% | nt | -4.0% | nt
COc1ccc(-c2cc(=O)c3c(C)cc(O)cc3o2)cc1 | nt | ? | -18% | nt | nt | 15% | nt | ?
CN(C)c1nc(NCc2ccccc2)nc(SCC(=O)Nc2ccccc2Cl)n1 | -1% | ? | -14% | 18% | 7% | 17% | -2.8% | ?
Cc1cc(C)c(Cn2c(=O)n(CCCCCC(=O)NCc3ccc4c(c3)OCO4)c(=O)c3sccc32)c(C)c1 | -5% | -7%[46.1 µM] | -16% | nt | nt | nt | -1.6% | ?
CC(NC(=O)Nc1cccc([N+](=O)[O-])c1)(C(F)(F)F)C(F)(F)F | 0% | ? | ? | -14% | -11% | -4% | -6.6% | ?
COc1ccc(C(=O)COC(=O)CNS(=O)(=O)c2ccc(C)cc2)cc1 | -21% | ? | 6% | 1% | -22% | 4% | -24% | -22%
Cc1nc2c(O)c3c(c(O)c2nc1C)C1C=CC3CC1 | nt | ? | 7.1µM* | nt | nt | -6% | nt | ?
CC(=O)Nc1ccc2c(c1)C(=O)N(c1ccc(C)cc1)C2=O | 10% | 9% | 54%[activator] | 1% | -3% | -7% | -17% | 3%
CCCCN(C(=O)CSc1nc2ccccc2s1)c1c(N)n(CCCC)c(=O)[nH]c1=O | nt | -19% | 3% | 0% | nt | -12% | nt | -3%
CCOc1ccc(NC(=O)CCc2c(C)nc3c(c(C)nn3-c3ccccc3)c2C)cc1 | -6% | -12%[46.1 µM] | -4% | nt | nt | nt | -1.6% | ?
COc1ccc(NC(=O)c2cc3c(=O)n(Cc4cccs4)ccc3nc2C)c(OC)c1 | ? | nt | 0% | nt | nt | nt | -5.6% | -17%[46.1 µM]
O=C(CNC(=O)c1ccccc1F)OCC(=O)N1CCCCC1 | ? | -2% | -16% | -1% | 8% | 5% | 16µM* | -2%
COc1ccc(C2C(C(=O)c3cccs3)=C(O)C(=O)N2CCN2CCOCC2)c(OC)c1 (stereo not given) | nt | nt | -4% | 0% | 0% | -8% | nt | nt
N#Cc1ccccc1NC(=O)Nc1cccc(Cl)c1 | -5% | -4% | -7% | nt | -10% | -15% | 0.6% | 18%
COc1ccc(CNCCc2ccccc2)cc1OCC(N)=O | 0% | 1% | 6% | -6% | -6% | -5% | 0.5% | 6%
C#Cc1cccc(NC(=O)c2ccc(Cl)cc2Cl)c1 | nt | nt | 35%[activator] | -2% | -11% | -13% | nt | nt
CCOC(=O)C1=C(C)OC(N)=C(C#N)C1C1CCCCC1 (stereo not given) | 3% | -4% | -5% | 0% | -9% | 6% | -4.5% | 3%
COc1ccc(N2C(=O)C(CC(=O)Nc3ccc(Cl)cc3)N(NC(=O)c3cccc(F)c3)C2=S)cc1 (stereo not given) | nt | nt | 0% | 0% | 2% | -2% | nt | nt
CN(CC(=O)NCc1cccs1)S(=O)(=O)c1cccc2cccnc12 | -4% | nt | 3% | 5% | -2% | 20% | 0.4% | nt
COc1ccc(CCNc2oc(-c3ccc(C)cc3)nc2C#N)cc1OC | ? | nt | -8% | -8% | -47% | 3% | -18% | nt
Cc1nn2c(=O)cc(COC(=O)c3ccc(C(C)(C)C)cc3)nc2s1 | -1% | nt | ? | nt | nt | nt | -0.8% | 15%[46.1 µM]
O=C1NC(NS(=O)(=O)c2ccc(Cl)cc2)(C(F)(F)F)C(=O)N1c1ccccc1 (stereo not given) | 10% | 8% | -23% | -4% | 8% | 6% | -1.7% | 26%
Cn1c(=N)n(CC(O)c2cccs2)c2ccccc21 (stereo not given) | nt | ? | 15% | 0% | -4% | -3% | nt | -9%
C[C@@H]1CC=C[C@H]2[C@H]1C(=O)N(Cc1ccccc1)[C@H]2c1cccc([N+](=O)[O-])c1 | nt | nt | -8% | -4% | -35% | -6% | nt | nt
O=C(NCc1ccco1)C1CCN(c2ccc(N3CCOCC3)nn2)CC1 | -11% | nt | -1% | -15% | 3% | -7% | -3.7% | nt
Cc1nc2nc(NC(=O)c3ccc(C(C)(C)C)cc3)[nH]n2c(=O)c1Cl | 2% | -19%[46.1 µM] | -13% | nt | nt | nt | 2.5% | -3%[46.1 µM]
CC1(C)CC(=O)C(C=NCCN2CCN(C(=O)CC3CCCC3)CC2)=C(O)C1 | 1% | 24% | -26% | 0% | -7% | -2% | -3.9% | 7%
CS(=O)(=O)c1ccc(-c2cccc(NC(=O)COc3ccc(Cl)cc3)c2)nn1 | nt | nt | -3% | 21% | 4% | 14% | nt | nt
Cc1ccc(S(=O)(=O)N2CCN(C(=O)N3CCOCC3)CC2)c(C)c1 | nt | nt | -4% | 11% | -11% | -6% | nt | nt
Cc1ccc(CCSCC(=O)O)cn1 | -8% | 0% | -14% | 2% | -5% | 5% | -2.5% | 7%
Cc1ccc(Cc2ccccc2C(=O)O)cc1 | nt | 10% | -4% | nt | nt | 0% | nt | -3%
Cc1cccc(NS(=O)(=O)c2ccc(C(=O)NCC(c3ccco3)N(C)C)cc2)c1C (stereo not given) | nt | -11% | ? | ? | 1% | 1% | nt | -23%
N#Cc1ccc(N2CCc3ccccc3C2)c([N+](=O)[O-])c1 | -6% | ? | -9% | 5% | -5% | -2% | -9.4% | 15%
Cc1cc(C)c2oc(C(=O)Nc3ccc(S(=O)(=O)N4CCCCCC4)cc3)cc(=O)c2c1 | -2% | -12%[46.1 µM] | -5% | nt | nt | nt | -2.3% | -10%[46.1 µM]
S=c1[nH]ncn1/N=C/c1ccccc1 | -2% | 0% | -3% | 0% | 3% | -7% | 0.2% | 2%
CC1=CC(C)(C)Nc2ccc(OC(=O)c3ccco3)cc21 | -18% | ? | nt | -9% | -57% | -7% | -4.9% | ?
CCOC(=O)C(C(=O)c1ccccc1)C1CC(C)NC(=S)N1 (stereo not given) | 0% | 19% | -16% | 6% | -3% | 1% | 0.3% | 11%
O=C(O)c1ccc(-c2nnn(Cc3cccc(C(F)(F)F)c3)n2)cc1 | nt | nt | -12% | 0% | -4% | 3% | nt | nt
CS(=O)(=O)Nc1ccc2[nH]c(=O)[nH]c2c1 | nt | 0%[46.1 µM] | ? | -1% | nt | -11% | nt | 1%[46.1 µM]
CCOCCCNC(=O)Cn1cnc2c(cnn2-c2ccc(F)cc2)c1=O | nt | nt | -10% | 10% | 13% | 6% | nt | nt
